Screening data from PubChem.
S aureus helic – inhibitors of S. aureus replicative helicase, primary screen, biochemical, fluorescence unwinding readout. replicative DNA helicase (DnaC/DnaB), Staphylococcus aureus. 0.05% of 120,000 active. inhibition, %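 (tested at about 80 µM)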. purified S. aureus helicase, fluorescence unwinding assay; about half of the hits fall short of the stated cut;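 active = both duplicates at 50% or more, or one of them with a favoured structure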;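 note: 0% = mean of negative control wells and 100% = mean of positive control wells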
MgrA-DNA mod – S. aureus MgrA activity modulators, primary screen, biochemical, S. aureus Newman, fluorescence polarization | 0.13% of 84,000 active | inhibition, %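 (about 10 µg/mL by stock and volumes)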 | AID 602314, 2012 | MgrA-DNA binding;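 active = above 50% in either of two replicates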;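 note: 0% = protein plus DNA without compound and 100% = DNA alone without protein; higher means less MgrA bound to DNA so lower polarization; one replicate is shown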
The depositor's hits bear a star; x = no result given; & = joins results of further samples.

A first look (17 entries):
SMILES	S aureus helic	MgrA-DNA mod
CCN1C(=O)/C(=c2\sc3nc(-c4ccccc4C)nn3c2=O)c2ccccc21	-12	x
CC(=O)N/N=C/c1c[nH]c2ccc(Br)cc12	18	x
[O-]c1n[n+](-c2ccccc2)no1	-4	2.1
COc1ccc(CCCc2nnc(SCC(=O)Nc3cc(F)ccc3C)o2)cc1C	3	1.0
CCN1/C(=C/C=C2\SC(=S)N(C)C2=O)Oc2ccccc21	-14	0.2
CC(C)n1ncc2c(C(=O)N3CCc4ccccc43)cc(C3CC3)nc21	5	x
CC(C)(C(=O)Oc1ccccc1)S(=O)(=O)c1ccc(C(F)(F)F)cn1	x	-2.8
CC1Sc2ccc(Cl)cc2-c2nc(-n3cccc3)ncc21 (stereo unspecified)	x	-0.5
COc1cccc(-n2ccnc2SCC(=O)Nc2ccccc2)c1	10	x
CCCN(CCC)S(=O)(=O)c1ccc(C(=O)Nc2nnc(-c3ccccc3)s2)cc1	x	-1.2
O=C(O)CN(CC(=O)O)c1ccc2cccc(O)c2n1	-10	5.0
Cc1cccc(CN2C(=O)CSc3nc(C)cc(C)c32)c1	-5	-0.5
O=P(O)(CCc1ccccc1)CN1CCCCC1	4	3.8
Cc1ccc(NS(=O)(=O)c2cccc(C(=O)NC3CC3)c2)c(C)c1	-6	-2.5
Cc1c2cn[nH]c(=O)c2c(C)n1Cc1ccccc1	9	x
S=C(NC1CC2C=CC1C2)N1CCC(CCCC2CCN(C(=S)NC3CC4C=CC3C4)CC2)CC1 (stereo unspecified)	x	0.0
COC(=O)c1scc(C)c1Cl	x	-1.3

The whole of this part (from the top)
SMILES	S aureus helic	MgrA-DNA mod
CCN1C(=O)/C(=c2\sc3nc(-c4ccccc4C)nn3c2=O)c2ccccc21	-12	x
CC(=O)N/N=C/c1c[nH]c2ccc(Br)cc12	18	x
[O-]c1n[n+](-c2ccccc2)no1	-4	2.1
COc1ccc(CCCc2nnc(SCC(=O)Nc3cc(F)ccc3C)o2)cc1C	3	1.0
CCN1/C(=C/C=C2\SC(=S)N(C)C2=O)Oc2ccccc21	-14	0.2
CC(C)n1ncc2c(C(=O)N3CCc4ccccc43)cc(C3CC3)nc21	5	x
CC(C)(C(=O)Oc1ccccc1)S(=O)(=O)c1ccc(C(F)(F)F)cn1	x	-2.8
CC1Sc2ccc(Cl)cc2-c2nc(-n3cccc3)ncc21 (stereo unspecified)	x	-0.5
COc1cccc(-n2ccnc2SCC(=O)Nc2ccccc2)c1	10	x
CCCN(CCC)S(=O)(=O)c1ccc(C(=O)Nc2nnc(-c3ccccc3)s2)cc1	x	-1.2
O=C(O)CN(CC(=O)O)c1ccc2cccc(O)c2n1	-10	5.0
Cc1cccc(CN2C(=O)CSc3nc(C)cc(C)c32)c1	-5	-0.5
O=P(O)(CCc1ccccc1)CN1CCCCC1	4	3.8
Cc1ccc(NS(=O)(=O)c2cccc(C(=O)NC3CC3)c2)c(C)c1	-6	-2.5
Cc1c2cn[nH]c(=O)c2c(C)n1Cc1ccccc1	9	x
S=C(NC1CC2C=CC1C2)N1CCC(CCCC2CCN(C(=S)NC3CC4C=CC3C4)CC2)CC1 (stereo unspecified)	x	0.0
COC(=O)c1scc(C)c1Cl	x	-1.3
CC(=O)Nc1ccc(S(=O)(=O)Nc2ccc3c(c2)OC(C)(C)O3)cc1	0	0.0
COc1ccccc1NS(=O)(=O)c1ccc(N)cc1	-12	x
CS(=O)(=O)Nc1ccccn1	8	x
O=C(COC(=O)c1ccc(-c2nc3ccccc3s2)s1)NC1CC1	4	x
CCC(CC)C(=O)n1c(=O)oc2ccc(C)cc21	-6	x
COc1ccccc1OCCN1CCN(CCOc2ccccc2OC)CC1	9	x
CCN(CC)C(=O)CSc1nnc(-c2ccco2)n1CCCOC	6	-0.3
O=C(NC(=S)N1CCOCC1)C12CC3CC(CC(C3)C1)C2	-7	x
CCN(CC)c1ccc(-c2nnc(SCC(=O)N3CCNC3=O)n2C)cc1	10	x
CCN(Cc1ccccc1)C(=O)c1ccc(C#N)cc1	-12	x
O=C(NCC(=O)N1CCN(S(=O)(=O)c2ccccc2)CC1)c1ccc(Cl)cc1	-3	x
Cc1noc(C)c1CSCC(=O)NC1CCCc2ccccc21 (stereo unspecified)	-11	x
CN(C)S(=O)(=O)c1cccc(C(=O)OCC(=O)N2CCCCC2)c1	2	x
CCOc1cc2[nH]c(=S)n(CCCCC(=O)NC3CCCCC3)c(=O)c2cc1OCC	5	-0.4
COC(=O)c1sc(S(=O)(=O)NC23CC4CC(CC(C4)C2)C3)c(C(=O)OC)c1C	-14	1.9
CCC(=O)Nc1ccc2nc(-c3ccccc3)[nH]c2c1	14	-2.7
N#Cc1ccsc1NC(=O)/C=C/c1ccccc1	-19	x
O=C(Nc1ccc(OCc2ccccc2)cc1)N1CCN(c2ccccn2)CC1	x	0.8
N#Cc1ccc(-c2cccnc2)nc1SCC(=O)O	5	-3.0
O=C(CC1Sc2ccccc2NC1=O)OCn1nnc2ccccc2c1=O (stereo unspecified)	-10	x
Cc1cccc(NC(=O)CNC(=O)c2ccc(S(=O)(=O)NCc3ccco3)cc2)c1C	-13	x
Cc1sc2c(c1C)CSC(C(=O)O)=C2	12	37
O=C(NCc1ccccn1)c1ccccc1	-2	x
CCc1ccc2[nH]c(C(=O)N(C)c3ccc(F)cc3F)cc2c1	x	2.4
CCc1ccc(-c2nc(CN3CCC(C(=O)NC4CC4)CC3)c(C)o2)cc1	17	5.0
COC(=O)C1=C(O)C2(C(=O)O)CC(C(=O)OC)=C(O)C(C(=O)O)(C1)C2	x	-4.3
O=S1(=O)N=C(N2CCCC(C(F)(F)F)C2)c2ccccc21 (stereo unspecified)	-4	x
CC(NC(=O)/C=C/c1ccccc1)C1COc2ccccc2O1 (stereo unspecified)	15	-1.4
COC(=O)c1ccc(C(=O)OCCCc2nc3ccc(N)cc3[nH]2)cc1	29	x
CC(C)COC(=O)N1CCN(S(=O)(=O)c2ccccc2C#N)CC1	-2	x
O=C(CCS(=O)(=O)c1cccc2nsnc12)NCc1cccs1	-9	x
CCOC(=O)c1oc2ccc3c(C)cc(=O)oc3c2c1-c1ccccc1	-9	x
O=C1C(=O)c2ccccc2C(O)=C1c1ccccc1F	17	x
CC(C)(C)c1coc2cc3oc(=O)ccc3cc12	-15	x
CCOC(=O)C1=C(C)Nc2c(C#N)c(N3CCOCC3)nn2C1c1ccc(OC)cc1 (stereo unspecified)	-2	x
O=C(CCC(=O)c1ccc(F)cc1)OCc1ccc(Br)cc1	-1	-2.0
CCOC(=O)c1c(C)[nH]c(NC(=O)Nc2ccc(N(C)C)cc2)c1C	-9	x
CCOC(=O)c1ccccc1NC(=O)Cn1c(=O)n(Cc2nc(C)no2)c(=O)c2cc3c(cc21)OCO3	-10	x
O=C(CSc1nc(NCc2ccccc2)c2ccccc2n1)c1ccc(F)cc1	-12	0.3
CCCCOC(=O)c1cc(=O)[nH]c(=O)[nH]1	1	x
O=S(=O)(c1ccccc1)c1cscc1NC(=S)Nc1ccccc1Cl	x	-1.9
N#Cc1ccc(COC(=O)CN2C(=O)CCOc3ccccc32)cc1	5	x
CNc1nc2c(C)cccn2c(=O)c1C=Nc1ccc(OC)cc1	2	x

(continued)
SMILES	S aureus helic	MgrA-DNA mod
Cc1cc2c3c(C)n(C4CCCCC4)c(C)c3c(C)nn2c1	7	-0.5
CSc1nc(-c2ccccc2)nc2c1Cc1ccccc1O2	10	1.1
Cc1cc(C)c(C)c(Cn2c(CO)nc3ccccc32)c1C	25	x
CCC(C(=O)NC1CCCC1)n1c(C(=O)OC)cc2ccsc21 (stereo unspecified)	11	x
CSc1n[nH]c(=O)n1-c1cccc(C(F)(F)F)c1	2	x
CCN(CC(=O)Nc1ccc2c(c1)OCCO2)C(=O)CC1CCCC1	-12	x
CCCCS(=O)(=O)NC1=NCN(CCOC(=O)c2ccccc2)CN1	10	x
Cc1ccc(S(=O)(=O)NCCC(c2ccc(F)cc2)c2ccco2)cc1 (stereo unspecified)	12	4.5
O=C1C=C(NNc2ccccc2)CCC1	-18	x
Nc1nnc(CCS(=O)(=O)c2ccc3ccccc3c2)s1	20	-0.6
O=C(CSc1nc(-c2ccco2)cc(C(F)(F)F)n1)N1CCCC1	7	0.6
CC(=O)N1N=C(c2ccc(C)cc2)CC1c1cc2cc3c(cc2nc1Cl)OCO3 (stereo unspecified)	14	-0.8
Cc1c(OCC(=O)NCc2ccccc2Cl)ccc2c3c(c(=O)oc12)CCC3	-15	0.1
CN(c1ncnc2c1cnn2-c1ccc(Cl)cc1)C1CCCCC1	-8	0.9
Cc1ccc2nc(-c3ccc(NC(=O)C4CCC4)cc3)sc2c1	x	-1.5
OCCN/N=C/c1cc(Cl)cc(Cl)c1O	0	x
COCC1=C(C(=O)OC)C(c2cccnc2)C(C#N)=C(N)O1 (stereo unspecified)	x	-3.2
Clc1ccc(C2=NC(c3ccc4c(c3)OCO4)NN2)cc1 (stereo unspecified)	x	-0.3
Cc1ccccc1SCC(=O)NC1CCOC1=O (stereo unspecified)	25	x
C=CCn1cc(C(=O)OC)c(=O)c2cc(S(=O)(=O)N3CCCCCC3)ccc21	12	0.5
CN(Cc1ccccc1)S(=O)(=O)c1ccc(C(=O)Nc2nc3ccc4ccccc4c3s2)cc1	13	2.1
CCSCCOC(=O)C1=C(C)N(C)C(=O)NC1c1ccccc1OCc1ccccc1 (stereo unspecified)	x	-0.8
COc1ccc2c(c1)NC1(O)c3ccccc3C(=O)C21O (stereo unspecified)	-1	x
CSC1=NCCN1C(=O)c1c(-c2ccccc2)noc1C	x	-0.6
N=c1c2c(-c3ccccc3)c(-c3ccccc3)n(Cc3ccco3)c2ncn1CCCN1CCOCC1	13	-2.2
COc1cccc(OC)c1C(=O)N1CCN(c2ncnc3scc(-c4ccccc4)c23)CC1	x	1.5
Cc1cccc(C)c1NC(=S)NCCO	x	-1.1
N#CCc1nc2ccccc2o1	18	0.3
Cc1c(N)c(=O)n(-c2ccccc2)n1C	x	3.9&-0.6
Oc1ccc(Cl)cc1N=Cc1ccco1	-42	1.4
c1ccc(CSc2ncn[nH]2)cc1	-6	-1.6
O=C(NC1CC1)c1c[nH]c2ccc(S(=O)(=O)Nc3cccc(C(F)(F)F)c3)cc2c1=O	-7	x
CN(C)c1cccc(N=Cc2c(O)n(Cc3ccc(F)cc3)c(=O)[nH]c2=O)c1	-34	x
COc1ccc(S(=O)(=O)N(CC(=O)O)C2CCCCC2)cc1OC	5	x
CNC(=O)COc1ncnc2sccc12	28	x
COc1cc(C(F)(F)F)nc2ccc(C)c([N+](=O)[O-])c12	x	1.6
COc1cccc2cc(C(N)=O)c(=Nc3cc(C(F)(F)F)ccc3Cl)oc12	x	0.4
C=CCNC(=O)C1=CC(c2ccc(C)cc2)=NS(=O)(=O)N1C	0	3.3
CCOC(=O)c1cc2c(ccn2-c2ccc(F)cc2)n1CC(=O)NC1CCCCC1	3	-4.5
COc1ccc2[nH]c(C(=O)NCCNc3cccc(C(F)(F)F)n3)cc2c1	x	-2.0
Cc1ccc2[nH]c(=O)c(CN(CC3CCCO3)C(=O)c3ccco3)cc2c1 (stereo unspecified)	-2	0.8
CS(=O)(=O)N1CCn2c1nc1ccccc12	-15	x
O=C(NCCCN1CCCC1=O)c1ccc2c(c1)ncn2C1CCCCC1	8	-0.2
CN(C)c1cccc(C(=O)N2CC3(C)CC2CC(C)(C)C3)c1 (stereo unspecified)	11	x
Cn1cc(C=C2C(=O)OC3(CCCCC3)OC2=O)c2ccccc21	14	2.6
COc1ccc(N(C(=O)/C=C/c2ccc(OC)c(OC)c2)C2=CC3CCC(C2)N3C)cc1 (stereo unspecified)	-1	1.2
CC(=O)Nc1cc(C(C)(C)C)nn1C	10	1.8
CCN(Cc1ccccc1)C(=O)Cn1c(=O)n(C2CCCCC2)c(=O)c2ccccc21	3	-1.1
Cc1ccc2nc3c(cc(C(N)=O)c(=N)n3Cc3cccnc3)c(=O)n2c1	5	8.0
CN1c2ccccc2C(=O)NC1c1cccc(C(F)(F)F)c1 (stereo unspecified)	-3	x
NC(N)=NC(N)=Nc1ccc(Oc2ccc(Cl)cc2)cc1	x	-2.0
c1ccc2c(NCC3CCCO3)nc(N3CCCCC3)nc2c1 (stereo unspecified)	-1	2.8
O=C(O)CSCC(=O)Nc1nc(-c2cccs2)cs1	14	x
Cc1cccc(/C=N/n2cnnc2)c1	4	0.1
CCOc1ccccc1CNC(=O)CC(C(=O)N1CCc2ccccc21)n1ccnc1 (stereo unspecified)	-1	x
CCC(C)NC(=O)c1ccc(OC(C)=O)cc1 (stereo unspecified)	0	-9.7
CCOc1cc(S(=O)(=O)n2cccn2)ccc1F	-18	2.4
Cc1ccc(C)c(Cn2c(CO)nc3ccccc32)c1	11	-0.6
Cc1oc(-n2cccc2)c(C#N)c1C(=O)NCc1ccc(Cl)cc1	8	x
COc1cc2c3nc4n(c(=O)c3n(C)c2cc1OC)CCS4	49*	1.6

(further entries)
SMILES	S aureus helic	MgrA-DNA mod
O=C(Nc1ccccc1)C1=C(O)CC(c2ccco2)CC1=Nc1ccccc1 (stereo unspecified)	1	x
C[C@]12C=CC(=O)C=C1CC[C@H]1[C@@H]3C[C@@H](O)[C@](O)(C(=O)CO)[C@@]3(C)C[C@H](O)[C@@]12F	x	2.3
N#CC1c2ccccc2C=CN1C(=O)c1ccccc1F (stereo unspecified)	-3	0.8
Cc1ccc(Cl)cc1N1CCN(C(=O)C2CCCN2c2nnc(N3CCCC3=O)s2)CC1 (stereo unspecified)	13	x
CCCNC(=O)N1CCN(Cc2ccc(F)cc2Cl)CC1	3	0.0
COC(=O)C(C)N1C(=O)S/C(=C/c2ccc(C)o2)C1=O (stereo unspecified)	-13	-7.2
Cc1nnc(SCCn2c(N(C)Cc3ccccc3)nc3c2c(=O)n(C)c(=O)n3C)s1	13	x
N#Cc1cccc(NCCN2CCNC2=O)n1	x	0.2
CN(Cc1ccccc1)C1CCN(Cc2ccncc2)CC1	41	x

Full records as entered above. Order of screens: S aureus helic	MgrA-DNA mod
CCCNC(=O)N1CCN(Cc2ccc(F)cc2Cl)CC1 is listed with 3	0.0
N#CC1c2ccccc2C=CN1C(=O)c1ccccc1F (stereo unspecified) is listed with -3	0.8

These rows are one share of the data; the hit share may differ from the screen's.
